Vaccinia mCherry: inhibitors of vaccinia virus infection (mCherry reporter signal) | Vaccinia virus mCherry reporter infection, fluorescence; about a quarter of the inactives have no number | Potency, µM (top dose mostly 36.5 µM), inactives show top-dose activity change, negative = inhibition, most hits filed as inhibitors | 310,000 tested, 0.63% active; active = well fitted inhibition curve with a large enough effect; inconclusive = small, poorly fitted or top-dose-only effect; inactive = no such curve, though single readings can be large or run the other way; tested in A549 cells; note: nearly all actives have a fitted effect of over 35% in size; inactives centre near -10
Vaccinia Venus: inhibitors of vaccinia virus (Venus reporter) | Potency, µM (series often up to 36.5 µM), for inactives: at the top dose activity change, negative = inhibition, usual class: inhibitors | 330,000 tested, 0.46% active | Vaccinia virus Venus reporter expression, fluorescence; active means well fitted inhibition curve with a large enough effect; inconclusive means small, poorly fitted or top-dose-only effect; inactive means no such curve, though single readings can be large or run the other way; tested in A549 cells; note: nearly all actives have a fitted effect of over 30% in size; inactives centre near -10
Starred values were filed as active, the others as inactive; i = inactive; ? = inconclusive; . = not tested or not shown; & = joins results of further samples; [ ] = another dose, or the depositor's remark. % is set by controls: 0 for no effect and ±100 for the full control effect; potency is the fitted concentration of half-maximal effect.

molecule	Vaccinia mCherry	Vaccinia Venus
CN(C)CCN1CC(C(=O)O)CC1=O (centres undefined)	.	-15%
Cc1cc(C(=O)CN2CCCC2)c(C)n1-c1ccc(F)cc1	-1%	-6%
Cc1ccc(NCc2ccc(O)c3ncccc23)cc1	i	-9%
Cc1ccc(Cl)cc1N1CCN(S(=O)(=O)c2cc3c(cc2C)NC(=O)CO3)CC1	?	-10%
CCN1CCN(C(=O)C2=CC(c3ccc(OC)cc3)=NS(=O)(=O)N2C)CC1	i	-4%
OC(c1nc2ccccc2[nH]1)C(O)C(O)C(O)c1nc2ccccc2[nH]1 (centres undefined)	i	-3%
COc1ccc(-n2c(=O)c3c4c(sc3n(Cc3ccc(C(C)(C)C)cc3)c2=O)CCC4)c(OC)c1	-14%	-11%
CCN1CNC(=S)N(CCc2ccccc2)C1	i	-10%
COc1cccc(-c2ccc(SCC(=O)NCCc3ccccc3)nn2)c1	8%	2%
O=C1NC[C@H](CCCCN2C[C@H](Cc3ccc(O)cc3)N(CCc3ccc(O)cc3)C(=O)C2=O)N(CCc2ccc(O)cc2)C1=O	8%	2%
O=C(NC1CCc2ccccc21)C12CN(Cc3ccccc3)CC1C(c1cccc([N+](=O)[O-])c1)=NO2 (centres undefined)	?	-5%
Cc1ccc(N(CC(=O)NCC2CCCO2)C(=O)CCC(=O)Nc2cc(C)on2)cc1 (centres undefined)	i	-8%
C/C=C/Cn1cccc(C(=O)Nc2ccc(OC)cc2)c1=O	i	2%
CCOC(=O)c1c(C)c(C(=O)NCCc2ccc(OC)cc2)c(C)n1C	1%	0%
Cc1ccccc1OCC(=O)Nc1ccc(S(=O)(=O)Nc2ncccn2)cc1	-20%	-8%
Cc1ccc2nc(-c3ccncc3)c(Nc3ccc(C(C)C)cc3)n2c1	-23%	-26%
COc1ccc(C)cc1NC(=O)c1ccccc1NS(=O)(=O)c1cccc2cccnc12	-10%	3%
COc1ccc(-c2noc(CSc3nnc(C)n3-c3cccc(C)c3)n2)cc1	-7%	-6%
O=C(c1ccccc1)N(Cc1cccs1)C1CCS(=O)(=O)C1 (centres undefined)	i	-14%
CC(C)COC(=O)N(C)c1ccc(C(O)(C(F)(F)F)C(F)(F)F)cc1	.	?

Continued, overlapping the part above by 6 compounds.
molecule	Vaccinia mCherry	Vaccinia Venus
Cc1ccccc1OCC(=O)Nc1ccc(S(=O)(=O)Nc2ncccn2)cc1	-20%	-8%
Cc1ccc2nc(-c3ccncc3)c(Nc3ccc(C(C)C)cc3)n2c1	-23%	-26%
COc1ccc(C)cc1NC(=O)c1ccccc1NS(=O)(=O)c1cccc2cccnc12	-10%	3%
COc1ccc(-c2noc(CSc3nnc(C)n3-c3cccc(C)c3)n2)cc1	-7%	-6%
O=C(c1ccccc1)N(Cc1cccs1)C1CCS(=O)(=O)C1 (centres undefined)	i	-14%
CC(C)COC(=O)N(C)c1ccc(C(O)(C(F)(F)F)C(F)(F)F)cc1	.	?
CCc1ccc(CN2CCc3nc(Nc4ccccc4)ncc3C2)cc1	-16%	-18%
O=C(c1ccc(S(=O)(=O)Cc2ccccc2F)c([N+](=O)[O-])c1)N1CCCCCC1	?	-13%
CC1CN(C(=O)C2CC2)C(C)CN1C(=O)C1CC1 (centres undefined)	i	-14%
CC(C)c1ccccc1NC(=O)CN1C(=O)c2cccc3cccc1c23	7%	18%
CC(=O)Nc1ccc2c(COC(=O)CC3Sc4ccccc4NC3=O)cc(=O)oc2c1 (centres undefined)	-21%	4%
CCc1ccc(NC(=O)C2CCN(c3nn4c(=O)cc(C)nc4s3)CC2)cc1	-1%	-16%
CCNC(=O)C(=O)NCC1CCCN1S(=O)(=O)c1cccs1 (centres undefined)	-16%	-10%
CC(=O)c1cc2c(cc1NC(=O)Nc1cccc(Cl)c1)OCCO2	.	-8%
NS(=O)(=O)c1ccc(N=Nc2ccc(O)c3ncccc23)cc1	?	10µM*
CC1CCN(CC(=O)Nc2ccc(C(=O)N3CCCCC3)cc2)CC1	-14%	-24%
COC(=O)C[C@H]1CC[C@H](NC(=O)Nc2ccccc2)[C@@H](CO)O1	-1%	-3%
N#Cc1cccc(-c2cc(NCc3cccs3)ncn2)c1	?	-3%
CCC[C@@H](CN1CCC[C@H]1CN1C(N)=NC[C@@H]1Cc1ccccc1)N1C[C@@H]([C@H](C)CC)N(CCCC2CCCC2)C1=N	i	?
O=C(NCCCn1ccnc1)/C(=C/c1ccco1)NC(=O)c1cccs1	8%	-3%
Cc1cc(=O)oc2cc(NC(=O)c3ccc(OC(F)F)cc3)ccc12	-16%	-15%
COc1ccc(OC)c(NC(=O)CSc2ncccc2C(=O)O)c1	-14%	-12%
O=S(=O)(Nc1ccc(Nc2ccccc2)cc1)c1ccc(F)cc1	?	-18%
Cc1ccc(/C=N/NC(=O)c2ccc(-n3cnnn3)cc2)cc1	-11%	0%
CCOC(=O)c1sc(-c2ccc(OC)cc2)cc1NC(C)=O	-2%	-7%
O=C1NC(=S)N(c2ccccc2)C(=O)C1C(c1ccncc1)C1C(=O)NC(=S)N(c2ccccc2)C1=O (centres undefined)	-5%	-3%
COc1ccc(Cl)cc1NC(=O)C(C)Sc1nc2c(c(=O)[nH]1)CCCC2 (centres undefined)	-12%	-7%
CCOC(=O)CNC(=O)CN1C(=O)CC(c2ccccc2)S(=O)(=O)c2ccccc21 (centres undefined)	1%	4%
Cc1noc(C)c1COC(=O)c1cccc(S(=O)(=O)N2CCCCCC2)c1	?	?
Cc1cn([C@H]2C[C@H](N=[N+]=[N-])[C@@H](CO)O2)c(=O)[nH]c1=O	i	-7%
COc1ccc(C2=NS(=O)(=O)N(C)C(C(=O)N3CCc4ccccc4C3)=C2)cc1OC	-21%	-7%
Cn1c(N)c(C#N)c(-c2ccccc2)c(C#N)c1=O	i	-8%
CCOc1ccc2[nH]c(=O)c(CN(CCCN3CCOCC3)Cc3nnnn3Cc3ccc(OC)cc3)cc2c1	-1%	-16%
CCCSc1nc(C)c(CC(=O)O)c(=O)[nH]1	.	-24%
CC(C)c1ccc(N2C(=NC(=O)C3CCCO3)SC3CS(=O)(=O)CC32)cc1 (centres undefined)	i	-8%
CC(C)Cn1ccc(=O)n(CC(C)C)c1=O	-12%	-20%
CCNc1nc(Oc2ccc(=O)[nH]n2)nc(SC)n1	-20%	-1%
CC(C(=O)Nc1ccc(Cl)cc1Cl)N1C(=O)NC2(CCCC2)C1=O (centres undefined)	-12%	-5%
CCOC(=O)C1(Cc2ccccc2)CCN(Cc2cnn(CC)c2)CC1	i	-13%
Cc1ccccc1CNC(=O)C1CCN(c2nnc(N3CCCC3=O)s2)CC1	-9%	-9%
C/C(=N\NC(=S)NC(C)C)c1ccc(-n2ccnc2)cc1	.	-12%
COc1ccc(CC(=O)NNC(=S)Nc2ccccc2)cc1Br	.	-4%
COc1ccc(CC(=O)N(C)c2ccccc2)cc1S(=O)(=O)N1CCOCC1	-21%	-13%
C=CCN(C(=O)CNC(=O)c1ccco1)C(C(=O)NC1CCCCC1)c1ccc(OC)cc1 (centres undefined)	-7%	-7%
CC1=C(\C=C/C(C)=C/C=C\C(C)=C\C(=O)O)C(C)(C)CCC1	-4%[3.33 µM]	-15%[3.33 µM]
Cc1ccc(C2C3=C(CCCC3=O)N=C3c4ccccc4C(=O)C32)cc1 (centres undefined)	-29%	-27%

2 records drawn at random from those above:
molecule	Vaccinia mCherry	Vaccinia Venus
Cc1ccc(C2C3=C(CCCC3=O)N=C3c4ccccc4C(=O)C32)cc1 (centres undefined)	-29%	-27%
CCOC(=O)C1(Cc2ccccc2)CCN(Cc2cnn(CC)c2)CC1	i	-13%

The list continues:
molecule	Vaccinia mCherry	Vaccinia Venus
COCCNc1nc(SCC(=O)N2CCN(c3ccccc3)CC2)nc2ccccc12	-24%	-23%
OC1CC2CCC(C1)N2CCCN1c2ccccc2Sc2ccc(Cl)cc21 (centres undefined)	?	11µM*
O=C(NCC(c1cccs1)S(=O)(=O)c1cccs1)c1c(F)cccc1F (centres undefined)	3%	-6%
CCOC(=O)c1c(NC(=O)COc2cccc3c2CCN(C)C3=O)sc2c1CCC2	-17%	?
COc1ccccc1/C=N/N1C(=O)c2cccc3cccc(c23)C1=O	14%	19%
COc1ccc(Cc2c(-c3cccc(Br)c3)nc3ccc(Br)cn23)c(C)c1	-10%	-25%
O=C(NCc1ccccn1)c1ccc(COc2ccc(Cl)cc2)o1	-17%	-13%
OC1(c2cccnc2)CCN(Cc2nnnn2C2CCCCC2)CC1	i	-14%
CCc1ccccc1NC(=O)Nc1cc(C(=O)NCc2cccc(F)c2)ccc1N1CCCC1	?	?
CCCCNc1c(-c2cccc(-c3ccc(OC)cc3)c2)nc2cc(C)ccn12	?	?
CCC(C)C(=O)Nc1nnc(SCC(=O)NC(C)(C)C)s1 (centres undefined)	-11%	-6%
CC(NC(=O)c1ccccc1NC(=O)c1ccco1)c1ccccc1 (centres undefined)	-14%	-6%
c1ccc2oc(-c3[nH]ncc3CN(Cc3ccncc3)CC3CCCO3)cc2c1 (centres undefined)	-12%	-15%
Cc1[nH]c2nc3ccccc3n2c(=O)c1CCC(C)C	-10%	1%
COC(=O)c1cc(=O)n(Cc2ccc(OC)cc2)c(=NCc2ccc(OC)cc2)s1	-3%	-10%
CC1CCCN(C(=O)COc2ccc(NC(=O)c3cccs3)cc2)C1 (centres undefined)	-5%	9%
O=[N+]([O-])/C=C1\NCCN1Cc1ccc(Cl)nc1	-4%	-5%&-16%
CC1CCCN(C(=O)c2cccc(S(=O)(=O)N3CCCc4ccccc43)c2)C1 (centres undefined)	-2%	-19%
O=C(NCC1COc2ccccc2O1)c1cccs1 (centres undefined)	-7%	-2%
CC(=O)c1cnc(SCc2ccc(Cl)cc2)nc1C	-1%	-8%
Cc1cccc(N(CC(O)CN2CCOCC2)S(=O)(=O)c2ccccc2)c1 (centres undefined)	i	-10%
C(=C\c1c[nH]c2ccccc12)/c1ccnc2ccccc12	?	-29%
CCC(C(=O)Nc1c[nH]c(=O)[nH]c1=O)c1ccccc1 (centres undefined)	-15%	0%
CC(C)Nc1nc(NC(C)C)nc(SCC(N)=O)n1	1%	3%
O=C(NC(c1ccccc1)c1ccc2ccccc2n1)C1CCN(CCOc2ccc(Cl)cc2)CC1 (centres undefined)	?	10µM*
COc1ccccc1C1CC(c2ccc(Cl)cc2)Nc2ncnn21 (centres undefined)	i	-7%
COc1ccc(CNC(=O)CCCC2=NS(=O)(=O)c3ccccc3N2)cc1	-11%	-25%
CCN(CC)C(=S)Nc1ccc(C(=O)OC)cc1	-2%	-5%
COc1cc(/C=C/C(=O)O)ccc1O	3%&-11%	?
O=C1c2ccccc2C(=O)N1CCCc1nc(-c2ccccn2)no1	-15%	-17%
CCCS(=O)(=O)N1CCCC(C(=O)NCCc2ccc(Cl)cc2)C1 (centres undefined)	i	-10%
Cc1nnc(SCC(=O)Nc2ccc(N(C)C)cc2)[nH]c1=O	7%	-4%
CN(C)C(=O)c1cccc(-c2cccc3nccn23)c1	23%	-9%
CC(C)CCn1c(=O)c2sccc2n2c(CCCC(=O)NC(C)C)nnc12	-17%	-10%
Cc1ccc(-c2nc3ccccc3n3c(-c4ccccc4)c4c(=O)n(C)c(=O)n(C)c4c23)cc1	-10%	2%
Cc1cc2c(ccc3[nH]onc32)n1	i	-23%
CCOc1ccc(NC(=O)c2ccc(NC(=O)COC(=O)c3ccc(NC(=O)CC#N)cc3)cc2)cc1	-9%	-1%
CC1CCCC(NC(=O)COC(=O)C2=COCCO2)C1C (centres undefined)	i	-6%
O=C(CCCc1ccccc1)NCCCN1CCOCC1	-12%	-5%
Fc1cccc2sc(Nc3nc4cc5c(cc4s3)OCCO5)nc12	-3%	-17%
CCOc1cc(CNCc2ccccc2)ccc1OCC(=O)NC1CCCCC1	-5%	-20%
COc1cc(OC)cc(C(=O)Nc2ccc3c(c2)CCCN3C(=O)c2cccs2)c1	-17%	-12%
COc1ccc(-c2onc(C)c2C)cc1S(=O)(=O)NCC1CCN(Cc2cc(C)ccc2C)CC1	?	?
CN(CC(=O)Nc1ccc(F)cc1F)S(=O)(=O)c1ccc(C(=O)N2CCOCC2)s1	3%	6%
CCN(CC(=O)Nc1ccccc1C(F)(F)F)C(=O)c1cc(S(=O)(=O)N(C)C)ccc1N1CCCC1	i	0%
CC(=O)Nc1ccc(S(=O)(=O)NCCc2cc3ccc(C)c(C)c3[nH]c2=O)cc1	-12%	-8%
O=C(NCC1CCCO1)c1ccccc1NS(=O)(=O)c1ccc(Br)s1 (centres undefined)	-11%	-7%
COc1cc(NS(=O)(=O)c2ccc(N=Cc3c(C)[nH]n(-c4ccccc4)c3=O)cc2)nc(OC)n1	-4%	1%
CC(C)C(C)NC(=O)CN1C(=O)NC(C)(c2ccc3ccccc3c2)C1=O (centres undefined)	i	-18%
N#Cc1ccccc1S(=O)(=O)N1CCN(Cc2cc3c(cc2Br)OCCO3)CC1	i	-10%

Compound activity (PubChem)
